# MT1-MMP act inh = blocks activation of human MT1-MMP; P50281; HT1080 RFP-PRO-GFP cells, GFP/RFP ratio fluorescence, overnight; percent of plate control window, DMSO zero; GFP/RFP ratio change, % at 20 µM; 360,000 compounds, 0.061% hits; AID 651647;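 active means GFP/RFP ratio change of at least 30% with cell ATP level not reduced by more than half and red fluorescence within 50% of control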; further: strong numbers were not always called active
#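 Compound: 20 µM single dose, 1% DMSO / System: HT1080 RFP-PRO-GFP cells / Controls: DMSO and RFP-L50D-GFP cell wells / Read-out basis: GFP/RFP fluorescence ratio / Schedule: overnight compound exposure at 37 °C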
# PABP polyA inh = PABP-poly(A) binding inhibition; P11940; PABP-poly(A) RNA binding, fluorescence polarization; inhibition, % at 35 µM; 290,000 compounds, 1% hits; AID 2014;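 active means 50% or more with normal probe brightness, or confirmed in later tests; about a fifth of its hits are not listed in these tables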;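 further: calls also rest on retests at 20 µM and on dose response follow-up; controls were probe without protein and protein plus probe with vehicle; some compounds called inactive have numbers as strong as hits; many hits fall short of the cut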
# Target sequence (P11940 whole entry, looked up): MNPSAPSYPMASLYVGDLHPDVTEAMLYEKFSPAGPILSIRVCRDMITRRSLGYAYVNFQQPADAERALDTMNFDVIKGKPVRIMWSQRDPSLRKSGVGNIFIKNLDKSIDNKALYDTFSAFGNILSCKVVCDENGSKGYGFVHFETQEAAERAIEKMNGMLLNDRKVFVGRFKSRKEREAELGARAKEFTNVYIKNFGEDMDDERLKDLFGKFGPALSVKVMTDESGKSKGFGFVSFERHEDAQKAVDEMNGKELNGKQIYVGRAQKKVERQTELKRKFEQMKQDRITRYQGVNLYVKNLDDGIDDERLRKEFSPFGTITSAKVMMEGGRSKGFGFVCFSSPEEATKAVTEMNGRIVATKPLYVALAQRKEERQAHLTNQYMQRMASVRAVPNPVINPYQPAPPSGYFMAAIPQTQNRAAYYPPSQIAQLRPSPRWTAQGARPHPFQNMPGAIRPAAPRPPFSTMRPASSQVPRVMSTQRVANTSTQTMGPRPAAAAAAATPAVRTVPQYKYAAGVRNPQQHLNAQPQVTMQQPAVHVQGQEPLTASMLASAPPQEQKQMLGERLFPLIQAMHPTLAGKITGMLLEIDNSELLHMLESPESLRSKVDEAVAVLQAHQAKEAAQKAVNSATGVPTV
# UUG fidelity = alters start codon recognition fidelity in yeast. S. cerevisiae UUG-firefly luciferase reporter, luminescence/redox ratio. activity score, % at 18.7 µM. 350,000 compounds, 0.13% hits. AID 602363;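 active means replicate mean at a twofold rise or more, about +100% in these data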;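 further: firefly luciferase made from a UUG start codon reports start codon fidelity; reporter light over untreated wells divided by growth signal over untreated wells; some hits fall short of that in this replicate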
# CSC inhib = blocks cancer stem cells; inhibition, % at 7.5 µM; cancer stem cell-like cells viability, luminescence; 300,000 compounds, 1.1% hits; AID 2717;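 active means mean at 75% or more and at least half the replicates too; tested in HMLE shEcad cells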;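 further: 0% = median of negative and 100% = median of positive control wells; the first replicate is given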
# eIF4H FP inh = inhibitors of RNA binding by human eIF4H. Q15056. eIF4H fluorescence polarization binding assay. AID 2012. inhibition, % at 35 µM. 290,000 compounds, 0.94% hits;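 active means 50% or more with normal probe brightness, or confirmed in later tests; about a fifth of its hits are not listed in these tables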;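 further: calls also rest on retests at 20 µM and on dose response follow-up; 0% = protein and probe with vehicle and 100% = probe without protein; strong numbers were not always called active; many hits fall short of the cut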
# Rce1 inh = inhibitors of yeast Ras-converting enzyme | 290,000 compounds, 0.27% hits | Q03530 | yeast membranes, quenched prenylated peptide cleavage fluorescence | calls only;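 active means fall in fluorescence gain of 50% or more versus controls, with final raw signal at or below 3038400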;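 further: plate controls were neutral control wells for no effect and wells lacking membranes for full effect; tested at 10 µM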
# Env fusion inh = HIV envelope-mediated fusion inhibition | HeLa-JRFL Env/CEM21 cell fusion, luciferase | inhibition, % at 12.3 µM | 360,000 compounds, 1.1% hits;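 active means mean replicate inhibition score of at least 50 and every replicate individually at or above 50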;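 further: 0% = plate neutral controls and 100% = maraviroc near 300 nM; one replicate is shown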
# eIF4H FP inh retest = recorded beside eIF4H FP inh, whose call it bears; inhibition, %; compound at 20 µM; confirmation average;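 mean of two retest wells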
# PABP polyA inh retest = second read-out of PABP polyA inh, no call of its own (marks repeat the call); inhibition, %; compound at 20 µM; confirmation repeats;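 mean of two retest wells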
# MT1-MMP act inh RFP = second read-out of MT1-MMP act inh, no call of its own (marks repeat the call); RFP signal change, %; measured here: RFP expression control read;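 0 = vehicle wells; hits needed this value within 50% of zero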
# * = called active by the depositor; i = inactive; nt = no result given. Only part of the results is shown, so the mix of outcomes need not match the whole.
# A first look:
SMILES,MT1-MMP act inh,MT1-MMP act inh RFP,PABP polyA inh,UUG fidelity,CSC inhib,eIF4H FP inh,Rce1 inh,Env fusion inh,others
CC[C@@H]1CCCCc2ccccc2[C@H](C(=O)C[C@@H](O)CC(C)=O)OC1=O,-2,3,nt,3,2,nt,nt,27,
COc1ccc2ccc3cccc[n+]3c2c1,2,-3,nt,5,nt,nt,nt,6,

# The list itself, repeating the preview:
SMILES,MT1-MMP act inh,MT1-MMP act inh RFP,PABP polyA inh,UUG fidelity,CSC inhib,eIF4H FP inh,Rce1 inh,Env fusion inh,others
CC[C@@H]1CCCCc2ccccc2[C@H](C(=O)C[C@@H](O)CC(C)=O)OC1=O,-2,3,nt,3,2,nt,nt,27,
COc1ccc2ccc3cccc[n+]3c2c1,2,-3,nt,5,nt,nt,nt,6,
O=C(NN1CCOCC1)c1ccc(S(=O)(=O)N2CCCCC2)cc1,0,2,-12,-13,-19,-5,i,8,
CCOc1ccc(CCN2C(=O)C(=O)N([C@H](CCCN(C)Cc3ccccc3)CNCc3ccccc3)C[C@@H]2C(C)C)cc1,nt,nt,10,nt,nt,-9,i,nt,
CN1CCC(N(C)C(=O)c2ccc(Cl)c(S(=O)(=O)N3CCc4ccccc43)c2)CC1,4,-5,nt,-14,42,nt,nt,18,
O=S(=O)(Nc1nccs1)c1ccc(Br)cc1,-1,3,11,nt,-15,-7,i,-15,
C/C(CC(=O)c1ccccc1)=N\NC(=O)CC#N,-5,-1,-6,nt,-9,1,i,2,
CN(C)C(CNC(=O)c1ccc(Br)cc1)c1ccco1 (stereo not drawn),1,5,-8,2,-2,0,i,-2,
O=C(Nc1ccc(F)cc1F)NC1CCCCCCC1,-5,-1,1,8,-9,-1,i,-43,
CCN(CC)P(=O)(/C(Cl)=C\Nc1c(C)n(C)n(-c2ccccc2)c1=O)N(CC)CC,1,4,0,12,0,14,i,nt,
O=C(C1CCN(S(=O)(=O)N2CCCCC2)CC1)N1CCCCC1,0,3,8,-10,-1,-7,i,-24,
c1ccc(-c2oc3ncnc(NCCCn4ccnc4)c3c2-c2ccccc2)cc1,-20,-19,-2,-17,1,4,i,nt,
Cc1cc(C)nc(N/N=C/c2ccc(N3CCOCC3)cc2)n1,1,2,-12,-28,-10,-8,i,-5,
CC(C)=CCC/C(C)=C/CC(C)(C)CNCCN1CCNCC1,nt,nt,-4,nt,65,4,i,nt,
COC(Cc1n[nH]c(=S)n1-c1ccccc1)OC,6,4,-9,-10,-20,-11,i,-30,
CCC(C)(C)C1CCC2(CC1)NC(=O)N(CC(=O)NCCc1c[nH]c3ccccc13)C2=O (stereo not drawn),-1,-6,nt,-10,nt,nt,nt,-14,
Cc1nn(-c2ccccc2)c(Cl)c1C(=O)OC(C)C(=O)NC(=O)NC1CCCCC1 (stereo not drawn),2,3,3,-11,10,4,i,-43,
COc1ccc(C(C(=O)NCc2ccccc2)N(C(=O)c2snc(C(N)=O)c2N)C2CCCC2)cc1O (stereo not drawn),-1,3,8,13,-4,8,i,-6,
CC(C)=NNc1nc2sc3c(c2c(=O)[nH]1)CC(C)(C)OC3,3,3,2,nt,-2,29,i,-16,
CCn1c(SCC(=O)c2ccc3c(c2)OCCO3)nnc1-c1ccco1,1,2,6,-5,3,-10,i,-38,
COc1ccc2oc(C(=O)OC/C(O)=C(\C#N)c3nc4ccccc4[nH]3)c(C)c2c1,-11,1,18,-12,nt,60,i,-1,eIF4H FP inh retest=14;PABP polyA inh retest=34
CC(NC(=O)CSc1nnc(-c2cc3cc(Cl)ccc3o2)n1C)c1ccccc1 (stereo not drawn),1,-2,-5,-20,0,3,i,i,
Cc1nc(N)ncc1Sc1ccccc1,-1,0,-4,nt,-6,12,i,-4,
CCn1c(-c2ccccc2Cl)nn(CC(=O)Nc2ccc(OC)cc2)c1=S,2,-6,3,-23,-14,4,i,nt,
O=C(Cn1c(=O)n(-c2ccc(F)cc2)c(=O)c2sccc21)N1CCCC1,5,6,-1,-7,-3,0,i,nt,
CC1=CC(C)(C)N(C(=O)CSc2nccn2C)c2cc(C)ccc21,3,4,-2,-14,-6,3,i,nt,
Clc1ccc(CN2CCN(c3ncccn3)CC2)c(Cl)c1,10,-2,8,-18,20,-8,i,3,
N/C(Cc1ccc([N+](=O)[O-])cc1)=N\OC(=O)C1CCCCC1,1,3,30,3,-10,26,i,16,
CC(C)N(CCC(=O)c1ccc2ccccc2c1)Cc1ccccc1,-2,3,nt,-20,75*,nt,nt,-13,
COc1ccc(NC(=S)NC2CCS(=O)(=O)C2)cc1 (stereo not drawn),-1,2,8,nt,-5,-1,i,4,
Cc1ccc(-c2c3c([nH]c(=S)c2C#N)CCCC3)o1,0,9,65*,-3,2,56*,i,-106,
O=C(N/N=C/c1cc(O)ccc1[N+](=O)[O-])c1ccc2c(c1)OCCO2,0,4,21,-24,6,27,i,-60,
COc1ccc(C(C)(C)C)cc1NC(=O)Nc1ccc2c(c1)OCO2,-2,-14,-4,-9,83*,6,i,38,
CCOC(=O)c1c(CN2CCCCC2)n(C)c2cc(Br)c(O)c(CN(C)C)c12,4,6,2,0,-6,8,i,nt,
O=C(Nc1ccccc1NC(=O)NC1CCCCC1)NC1CCCCC1,2,5,6,-15,nt,6,i,-17,
O=C(O)CC(CNS(=O)(=O)c1cccc2nsnc12)c1ccccc1 (stereo not drawn),-1,0,9,-6,-4,16,i,15,
COc1ccc(S(=O)(=O)N2CCCC(C(=O)NC3CCCCC3)C2)cc1 (stereo not drawn),1,-12,9,13,3,-3,i,nt,
O=C(NCCc1ccccc1)c1ccc2nc(N3CCOCC3)sc2c1,5,2,-13,-10,-3,-13,i,-16,
CN(C)C=Nc1nonc1-c1ccc(Cl)cc1,-2,-4,4,-10,6,-4,i,6,
CC1(C)[C@@H](O)CC[C@]2(C)C3C(O)C=C4[C@H]5C[C@@](C)(C(=O)O)CC[C@]5(C)CC[C@]4(C)[C@]3(C)CC[C@@H]12 (stereo partly drawn),nt,nt,-4,nt,29,1,i,nt,
COCCN(C(=O)c1cc(-c2ccncc2)nc2ccccc12)c1c(N)n(CC(C)C)c(=O)[nH]c1=O,-1,5,nt,nt,-7,nt,i,-7,
O=C(CN(Cc1ccc(F)cc1)C(=O)Cn1nnc2ccccc21)NCC1CCCO1 (stereo not drawn),-2,7,-10,-15,-6,-3,i,-28,
CC(=O)c1cccc(NS(=O)(=O)c2cc(OCC(N)=O)c(C)cc2Cl)c1,4,-2,-7,4,-8,-9,i,-17,
CN(C)c1ccc(/C=N/NC(=O)CCC(=O)NCc2ccccc2)cc1,5,7,-2,nt,6,2,i,-54,
O=C1CCCC(=O)N1c1ccc(NCCOCCO)c([N+](=O)[O-])c1,3,-1,-9,3,-12,-14,i,5,
CN(C)S(=O)(=O)n1cc(/C=C(\NC(=O)c2ccccc2)C(=O)NCCCN2CCOCC2)c2ccccc21,1,1,9,nt,7,-3,i,-1,
COc1ccc(C(=O)N(C)C(C)c2nccs2)cc1OC1CCN(C(C)=O)CC1 (stereo not drawn),-3,2,nt,-12,nt,nt,nt,17,
CCc1ccccc1S(=O)(=O)Cc1ccc(C(=O)NCc2ccc3c(c2)OCO3)o1,-1,-4,11,-7,-7,3,i,6,
c1ccc(-c2nc(-c3cccnc3)cs2)cc1,0,-1,7,-4,-11,-16,i,-17,
Oc1[nH]c(N=C2N=c3ccccc3=N2)c2ccccc12,-4,-8,43*,-32,51,80*,i,-166,eIF4H FP inh retest=99*;PABP polyA inh retest=73*
COc1ncnc2c1ncn2CCCNCC(c1ccccc1)c1ccccc1,3,3,nt,-3,nt,nt,nt,-12,
O=C1NN=C2CCCCCCCCCCC12 (stereo not drawn),-2,1,nt,-9,nt,nt,nt,58*,
COc1ccc(CCNC(=O)C2CC(c3ccccc3[N+](=O)[O-])=NO2)cc1 (stereo not drawn),-3,2,7,-10,4,-6,i,-45,
Cc1ccc(S(=O)(=O)/N=C2\C(=O)c3ccccc3C([O-])=C2n2cc[n+](CCC(C)C)c2)cc1,-61,-4,13,nt,16,9,i,nt,
COc1cccc(CN2CC(C(=O)NCCOc3cccnc3)CCC2=O)c1 (stereo not drawn),-2,3,14,6,nt,-4,i,5,
COC(=O)C1CCN(C(=O)COC(=O)c2oc3ccccc3c2C)CC1,2,4,nt,1,-1,nt,i,-11,
CN(CC(=O)Nc1cccc(F)c1)CC(=O)N1CCc2ccccc21,2,4,nt,-12,-7,nt,nt,nt,
COC(C[C@@H]1O[C@@H]1C(=O)[C@H](C)OCc1ccccc1)OC,3,4,nt,4,-26,nt,i,-32,
Cc1cc(C)c(S(=O)(=O)Nc2cccc(/C=C/C(=O)O)c2)c(C)c1,0,1,13,-9,-18,-11,i,9,
COc1cccc(-c2c(-c3cc(OC)cc(OC)c3)n(C)c3ccc(-c4cnc(N5CCOCC5)nc4)cc23)c1,-3,-1,nt,-19,42,nt,nt,-45,

# The results go on:
SMILES,MT1-MMP act inh,MT1-MMP act inh RFP,PABP polyA inh,UUG fidelity,CSC inhib,eIF4H FP inh,Rce1 inh,Env fusion inh,others
CN1CCN(/C=N/c2c(C#N)cnn2C)CC1,1,7,-6,-24,-3,-5,i,-44,
COc1ccc2c(c1)CCC1(C)CC(=O)C=C21 (stereo not drawn),-4,4,nt,-3,nt,nt,nt,-61,
CN(C)c1cccc2c1c(NC(=O)Nc1ccc(Cl)cc1Cl)nn2C,0,4,-1,nt,19,-5,i,14,
O=C(CC1C(=O)NCCN1Cc1ccc(F)cc1Cl)NCc1ccon1 (stereo not drawn),-1,-2,31,-9,-12,13,i,-7,
CC(C)N(Cc1ccccc1)C(=S)NCc1ccccc1,0,0,-17,nt,-27,1,i,9,
CCOC(=O)N1CCN(C(=O)c2cc3c(=O)[nH]c4ccccc4c3s2)CC1,-3,-2,1,-8,22,13,i,nt,
CNc1cccc(-c2ccccc2CO)n1,2,7,nt,-5,nt,nt,nt,7,
COc1ccc(-n2cnnc2SCC(=O)Nc2ccccc2F)cc1,-3,-1,1,11,-9,2,i,-5,
COc1ccccc1-c1cn(S(=O)(=O)c2ccc(C)cc2)nc1N,4,-6,4,-14,-7,-2,i,nt,
O=C(CSc1ncccn1)N/N=C/c1ccccc1[N+](=O)[O-],8,2,10,nt,-12,-3,i,-5,
CCCn1nc(C(=O)OCC(=O)Nc2ccc(C(N)=O)cc2)c2ccccc2c1=O,3,2,nt,-15,-16,nt,nt,27,
CCC(=O)Nc1nonc1-c1nc2ccccc2n1Cc1ccccc1,7,2,-8,-1,32,-4,i,nt,
CCCS(=O)(=O)NC(=O)C1(C)CCN(C(=O)c2c(-c3ccccc3)noc2C)C1 (stereo not drawn),-2,5,nt,-29,nt,nt,nt,7,
CN(Cc1cccnc1)C(=O)Cc1ccc(NS(=O)(=O)c2cccc(C(F)(F)F)c2)cc1,-3,-11,0,-13,53,3,i,12,
CCOC(=O)N1CCC(N2C(=O)c3ccccc3C2Nc2ccccc2)CC1 (stereo not drawn),-1,-1,-3,-12,-2,-3,i,nt,
Cc1cccc(N2CCN(C(c3ccncc3)c3nnnn3C(C)(C)C)CC2)c1C (stereo not drawn),-2,-9,42,nt,14,-9,i,14,
O=C(CCC1N=C2c3ccccc3N=C(SCc3ccccc3Cl)N2C1=O)NCc1ccco1 (stereo not drawn),-2,-4,3,-9,nt,-10,i,10,
COc1ccccc1Nc1cc(C)nc2c(C)cccc12,-1,1,nt,15,nt,nt,nt,-33,
Cn1c(=O)oc2cc(NC(=O)CCl)ccc21,2,3,-2,nt,-2,12,i,6,
O=C(CCc1nc2ccccc2c(=O)[nH]1)OCc1cccc(C(F)(F)F)c1,5,8,0,-10,-2,-3,i,16,
Fc1ccccc1OCCSc1nnnn1-c1ccccc1,0,-3,0,-38,nt,-4,i,-161,
